# From PubChem
# gsp antagonist: qHTS for Antagonists of gsp, the Etiologic Mutation Responsible for Fibrous Dysplasia/McCune-Albright Syndrome: qHTS. gsp-mutant cells, cAMP HTRF, 30 min; control for the full effect not named in the record. Potency, µM (titrated, usually from 76.9 µM), for the others: at the top dose activity change, negative = inhibition, hits mostly inhibitors. hit rate 0.4% among 340,000; active = falling curve of any shape with a large fitted effect; inconclusive = falling curve, mostly with a smaller effect; inactive = flat or rising curve; cell line not stated here;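 also: intracellular cAMP measured with PDE inhibitor Ro 20-1724 present during compound exposure; potency is read from the fitted curve at half-maximal effect; % is scaled to controls: 0 for no effect and ±100 for the full control effect; nearly all actives have a fitted effect of over 65% in size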
#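 Measurement of cellular cAMP by homogeneous time-resolved fluorescence following a 30 min compound exposure at 37C. The PDE inhibitor […] was present throughout; the assay buffer was DPBS with 0.05% BSA and 0.005% Tween 20.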
# D2 agonist: Beta-Arrestin HTS for Positive Allosteric Modulators of the Human D2 Dopamine Receptor: Agonists. D(2) dopamine receptor (Homo sapiens), P14416. DiscoveRx PathHunter D2 beta-arrestin, luminescence, 90 min; 100% = 57 uM dopamine signal. activation, % (concentration not given with the values). hit rate 0.084% among 360,000; in the data active = activation above about 40%; inconclusive = about 15% to 40%; inactive = below about 15%; also: compound concentration not given in the record; the text of the record calls up to 30% inactive
#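 Agonist mode: compounds alone added to overnight-plated D2 PathHunter cells for 90 min at 37 C, with 57 uM final dopamine (EC100) defining full response. Beta-arrestin recruitment detected by chemiluminescent reagent, read after 1 h at ambient temperature.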
# gsp agonist: qHTS for Agonist of gsp, the Etiologic Mutation Responsible for Fibrous Dysplasia/McCune-Albright Syndrome: qHTS; gsp mutant cells, cAMP HTRF, 30 min; control for the full effect not named in the record; Potency, µM (doses to about 76.9 µM), inactives show at the top dose activation (cAMP increase), hits mostly activators; hit rate 0.13% among 340,000; active = well fitted activation curve with a large enough effect; inconclusive = small, poorly fitted or top-dose-only effect, or another doubt; inactive = no such curve, though single readings can be large or run the other way; cell line not stated here;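 also: phosphodiesterase inhibitor Ro 20-1724 added with compounds to block cAMP breakdown; potency is read from the fitted curve at half-maximal effect; nearly all actives have a fitted effect of over 60% in size; about a fifth of the inactives were tested at one dose only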
#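 Cells stably selected in G418 were plated at 2000/well, grown 16-24 hr, then given compounds in DMSO with the PDE inhibitor […] (300 uM solution added) for 30 min at 37C; cAMP was read by HTRF.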
# D2 potentiator: Beta-Arrestin HTS for Positive Allosteric Modulators of the Human D2 Dopamine Receptor: Potentiators. hit rate 0.23% among 360,000. potentiation, % (concentration not given with the values). D(2) dopamine receptor (Homo sapiens), P14416. DiscoveRx D2 beta-arrestin cells, luminescence, 90 min; 100% = 57 uM dopamine signal; active = potentiation of 50% or more; inconclusive = 30% to 50%; inactive = 30% or less;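 also: compound concentration not given in the record; tested on top of an EC20 dose of dopamine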
#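 PathHunter D2 cells, attached overnight at 37 deg C, received compound in DMSO plus dopamine at EC20 (50 nM final) for 90 min at 37 deg C. Beta-arrestin recruitment was read as luminescence after 1 h with detection reagent at ambient temperature.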
# Six1-Eya2 inh: qHTS Assay for Inhibitors of the Six1/Eya2 Interaction; Homeobox protein SIX1 (Homo sapiens) + Protein phosphatase EYA2 (Homo sapiens), …; AlphaScreen GST-Six1/His-Eya2 binding, biochemical; stronger effect = lower value; control for the full effect not named in the record; hit rate 0.56% among 360,000; activity change, % (test concentration not listed); in the data active = activity change below about -65%; inconclusive = about -30% to -65%; inactive = above about -30%; also: % is scaled to controls: 0 for no effect and ±100 for the full control effect; compound concentration not given in the record
# Target sequence (O00167 whole entry, looked up): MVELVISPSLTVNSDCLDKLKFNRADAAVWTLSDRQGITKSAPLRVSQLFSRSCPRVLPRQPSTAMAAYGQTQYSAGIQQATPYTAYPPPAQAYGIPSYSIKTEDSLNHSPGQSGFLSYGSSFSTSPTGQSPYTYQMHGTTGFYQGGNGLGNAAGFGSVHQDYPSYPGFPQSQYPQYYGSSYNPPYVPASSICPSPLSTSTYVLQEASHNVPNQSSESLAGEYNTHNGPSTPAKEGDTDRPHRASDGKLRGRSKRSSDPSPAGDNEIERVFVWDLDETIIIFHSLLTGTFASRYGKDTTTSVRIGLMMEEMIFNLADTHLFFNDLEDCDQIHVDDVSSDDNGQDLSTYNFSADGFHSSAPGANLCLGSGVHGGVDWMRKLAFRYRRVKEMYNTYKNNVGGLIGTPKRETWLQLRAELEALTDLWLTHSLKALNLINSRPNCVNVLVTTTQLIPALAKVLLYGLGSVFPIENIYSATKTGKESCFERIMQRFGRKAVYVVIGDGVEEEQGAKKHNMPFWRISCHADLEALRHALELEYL
# Target sequence (Q15475 whole entry, looked up): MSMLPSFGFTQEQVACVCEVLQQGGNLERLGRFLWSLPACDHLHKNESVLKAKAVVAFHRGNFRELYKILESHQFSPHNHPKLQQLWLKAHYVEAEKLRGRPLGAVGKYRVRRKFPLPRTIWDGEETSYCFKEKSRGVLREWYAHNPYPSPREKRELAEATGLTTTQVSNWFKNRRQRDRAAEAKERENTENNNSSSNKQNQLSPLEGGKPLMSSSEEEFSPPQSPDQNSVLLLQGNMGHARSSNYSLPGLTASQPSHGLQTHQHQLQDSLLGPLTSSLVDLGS
#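 AlphaScreen with GST-Six1 and His-Eya2 (5X mix: 250 nM and 500 nM), glutathione donor and nickel acceptor beads; buffer 50 mM Tris pH 8.0, 300 mM NaCl, 1 mM TCEP; 1 h at 37 C in the dark.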
# CtBP-E1A blk: qHTS Assay for Inhibitors of the CtBP/E1A Interaction | CtBP / adenovirus E1A interaction (AlphaScreen) | AlphaScreen GST-E1A/His-CtBP binding, 1536-well; stronger effect = lower value; control for the full effect not named in the record | activity change, % (test concentration not listed) | hit rate 0.49% among 340,000; in the data active means activity change below about -65%; inconclusive means about -30% to -65%; inactive means above about -30%; also: % is scaled to controls: 0 for no effect and ±100 for the full control effect; compound concentration not given in the record
#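 GST-E1A and His-tagged CtBP (125 nM each as 5X stock) were preincubated with pin-transferred compound for 2 h at 37 °C in the dark, then glutathione donor and nickel acceptor beads were added for 1 h before AlphaScreen reading.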
# * hit, by the source's call; u = inconclusive; x = not tested or not shown; [ ] = remark or other dose.
D2 potentiator,D2 agonist,CtBP-E1A blk,gsp antagonist,gsp agonist,Structure,Six1-Eya2 inh
-7,-2.5,-2,1%,2%,COc1ccc(NC(=O)C2Cc3ccccc3C(=O)O2)cc1 (centres undefined),6
3,-2.3,-1,0%,14%[15.4 µM],CC(C)C(C)NC(=O)CSc1nnc(-c2c[nH]c3ccccc23)o1 (centres undefined),5
-3,-4.7,-6,-19%,-16%,C=CCn1c(COc2ccc(Cl)cc2)nnc1SCC(=O)N/N=C/c1cccc(O)c1,-11
-1,0.9,10,7%,-2%[15.4 µM],COc1ccc(C(=O)Cn2cnc3ccc(Cl)cc3c2=O)cc1F,-1
-6,-0.5,7,4%,5%,C#CCOCCOCCOCCNc1nc(N2CCN(C(=O)Cn3cc(CCCCN)nn3)CC2)nc(N2CCN(C(=O)Cn3cc(CCCCN)nn3)CC2)n1,5
-8,0.5,-4,5%,-7%,COCCCNS(=O)(=O)c1cccc(S(=O)(=O)c2cccc(S(=O)(=O)NCCCOC)c2)c1,1
-8,-4.1,8,x,x,COc1cccc(-c2cnc3cccnn23)c1,13
1,1.8,-11,-1%,u,Clc1ccc(-c2c[nH]c3ccccc23)nn1,-9
-9,-0.7,-5,x,2%,CC(Sc1nnc(-c2ccccc2F)n1C)C(=O)Nc1ccc(N2CCOCC2)cc1 (centres undefined),3
-7,0.1,x,u,5%,Cc1ccc(-c2nn(-c3ccccc3)cc2/C=C/C(=O)Nc2cccc(S(N)(=O)=O)c2)cc1,-1
2,-1.3,-2,-5%,-77%[inhibitor],COc1ccc(OC)c(NC(=O)C2CCCN(S(=O)(=O)c3cccc4nonc34)C2)c1 (centres undefined),-4
-3,-2.7,4,1%,19%,O=S(=O)(c1cccs1)N1CCN(c2ccccc2F)CC1,4
-4,-4.4,7,-5%,15%,CN(C(=O)c1cccc(NC(=O)Cc2cccc([N+](=O)[O-])c2)c1)C1CC1,-2
-2,-3.8,-9,-2%,-14%,CCCCn1c(N)c(N(CCOC)C(=O)CCNC(=O)NC23CC4CC(CC(C4)C2)C3)c(=O)[nH]c1=O,3
-3,-0.7,-21,5%,1%,Cc1ccc(NC(=O)CN2C(=O)S/C(=C\c3ccc(OCC(=O)O)c(Br)c3)C2=O)cc1,-8
-7,-8.2,-1,5%,-18%,CCOc1ccc(CN2CCNC(=O)C2CC(=O)OC)cc1 (centres undefined),-6
4,-0.8,0,12%,-22%,CC(=O)Nc1cc(C(C)C)c(O)c(C(C)C)c1,6
-3,-4.4,-3,8%,u,Cc1ccccc1NC(=O)NCc1ccccn1,0
-1,-1.0,4,2%,-5%,Cn1cnnc1SCC(=O)c1ccc2c(c1)OCCO2,0
-4,-1.3,9,u,18%[15.4 µM],O=C(COc1ccccc1O)NC1CCCC1,-4
-2,-4.5,-15,x,x,COCCCN1C(=O)C(CC(=O)NCCc2ccccn2)CC(C(=O)N(C(C)C)C(C)C)=C1C (centres undefined),8
-10,-2.8,0,19%,-13%[15.4 µM],CCOC(=O)c1cnc2nc(C)nn2c1N,11
0,-2.6,0,9%,10%,CNC(=O)c1c(O)c2cccc3c2n(c1=O)CC3,-4
-3,2.4,9,5%,-1%[15.4 µM],COc1ccc(NC(=O)N2CCC(c3nc4ccccc4[nH]3)CC2)cc1,6
-6,-1.7,14,2%,19%,CCCC[C@H]1COCCS(=O)(=O)N1Cc1cccc(Cl)c1,4
11,-3.6,1,-1%,-19%[15.4 µM],CCOc1cc(N2CCOCC2)c(OCC)cc1NC(=S)NCCCOC,-3
-18,-1.2,-16,-5%,23%,COc1ccc(-c2cc(C(=O)N3CCN(c4ccccn4)CC3)c3ccccc3n2)cc1,-18
-1,-1.9,-11,-25%,-2%,Cc1cc(/C=C2/NC(=S)NC2=O)c(C)n1-c1cccnc1,-2
-4,3.8,4,-8%,-3%,Cc1ccc(/C=C(\C#N)C(=O)NCCN2CCOCC2)cc1,-2
3,u,3,7%,0%[15.4 µM],O=C(CCNC(=O)c1ccccc1)N/N=C/c1ccc([N+](=O)[O-])cc1,7
-28,-4.0,20,u,0%,O=C1C=C(Nc2ccc(Cl)cc2)CC(c2ccco2)C1 (centres undefined),4
-2,1.4,-5,6%,-2%[15.4 µM],CCn1ccnc1CNC(=O)C1CCC(=O)N(Cc2ccccc2F)C1 (centres undefined),3
0,-1.2,x,-22%,-11%,O=C(c1ccco1)N1N=C(c2ccc(Cl)cc2)CC1c1ccco1 (centres undefined),-4
-9,4.4,-7,x,-6%[15.4 µM],c1coc(-c2ccnc3nc(-n4cccc4)nn23)c1,-11
-4,-0.8,-5,-7%,-17%[15.4 µM],O=C(CN1CCN(Cc2ccc3c(c2)OCO3)CC1)Nc1cc(S(=O)(=O)N2CCCC2)ccc1Cl,-2
7,0.6,3,20%,-16%,COc1ccc(CC2CCOC2=O)cc1 (centres undefined),6
5,6.0,0,-5%,4%[15.4 µM],Cc1cccc(C(=O)NC(=O)Nc2c(C)cc(C)nc2C)c1,-10
x,0.5,-5,-13%,x,COC(=O)c1cc2c(n(Cc3ccccc3)c1=O)CCCC2=O,-10
-3,7.5,u,x,x,NC(Cc1ccc(C(F)(F)F)cc1)c1csc(Nc2ccc(C(=O)c3ccccc3)cc2)n1 (centres undefined),-2
-1,-0.5,-10,-17%,17%,CC1CCN(C(=O)c2ccc(CNS(=O)(=O)c3ccc(C(C)(C)C)cc3)cc2)CC1,0
-8,2.1,0,-4%,30%,CCOc1ccc(-c2nc(C#N)c(NCc3ccco3)o2)cc1,-12
-1,5.2,4,6%,15%[15.4 µM],Cc1ccnc(NC(=O)CNC(=O)c2ccccc2)c1,10
-2,-5.3,-4,10%,-18%[15.4 µM],CCOC(=O)c1ccc(NC(=O)CC2C(=O)OCCN2CC)cc1 (centres undefined),-8
-4,-2.9,-5,1%,-12%[15.4 µM],Cc1cccc(C)c1NC(=S)N1CCC(c2ccccc2)C1 (centres undefined),2
-23,-4.4,-4,-4%,20%,COc1cc(NC(=O)c2cc(-c3ccccc3)on2)cc(OC)c1OC,0
6,-6.0,7,-22%,1%[15.4 µM],CSc1nc2ccccc2c(=O)n1Cc1ccc(F)cc1,3
-18,7.9,2,-6%,u,Cc1ccc(CN(Cc2ccccn2)C(=O)Nc2ccc(C)c(C)c2)cc1,-5
2,-5.4,0,x,-43%[inhibitor],C[C@H](CO)N1C[C@H](C)[C@@H](CN(C)S(=O)(=O)c2ccc(C#N)cc2)OCc2cn(nn2)CCCC1=O,6
-6,1.6,-16,-11%,-3%[15.4 µM],CN(CC(=O)Nc1ccc(N2CCOCC2)cc1)C(=O)CCCOc1ccc(Cl)cc1Cl,u
-4,0.6,-14,-27%,-7%[15.4 µM],CC(=O)c1ccccc1N(C(=O)c1ccco1)C(C(=O)NC1CCCC1)c1ccc(N2CCOCC2)cc1 (centres undefined),-5

# Ordered by molar mass (falling): 4 of the compounds above
D2 potentiator,D2 agonist,CtBP-E1A blk,gsp antagonist,gsp agonist,Structure,Six1-Eya2 inh
-4,-0.8,-5,-7%,-17%[15.4 µM],O=C(CN1CCN(Cc2ccc3c(c2)OCO3)CC1)Nc1cc(S(=O)(=O)N2CCCC2)ccc1Cl,-2
-1,-0.5,-10,-17%,17%,CC1CCN(C(=O)c2ccc(CNS(=O)(=O)c3ccc(C(C)(C)C)cc3)cc2)CC1,0
x,0.5,-5,-13%,x,COC(=O)c1cc2c(n(Cc3ccccc3)c1=O)CCCC2=O,-10
7,0.6,3,20%,-16%,COc1ccc(CC2CCOC2=O)cc1 (centres undefined),6

# Later entries
D2 potentiator,D2 agonist,CtBP-E1A blk,gsp antagonist,gsp agonist,Structure,Six1-Eya2 inh
0,-3.6,11,1%,3%,Cc1nnsc1SCCNC(=O)c1ccc(F)cc1,4
4,-0.8,-11,3%,-2%,CCOC(=O)Cn1nnnc1CN(Cc1ccc(OC)cc1)Cc1cc2cc(C)ccc2[nH]c1=O,-9
-8,-4.4,5,7%,8%,Cc1ccc(C(=O)COC(=O)CCN2C(=O)C3C4C=CC(C5CC45)C3C2=O)cc1 (centres undefined),2
-11,-0.5,2,-6%,3%,Cc1ccc(S(=O)(=O)C(C)C(=O)c2ccc3c(c2)OCCO3)cc1 (centres undefined),0
0,-3.7,4,-1%,-8%,CCn1cc(C(=O)NCc2ccccc2OC)c(=O)c2ccc(C)nc21,2
2,-1.8,1,4%,-22%,Cc1cccc(C2=N/C(=C\c3cccnc3)C(=O)O2)c1,5
-3,-2.5,7,x,32%,O=C(COC(=O)C1CC1)Nc1cccc(Cl)c1,-5
-1,-3.5,33,2%,-1%,COC(=O)c1cc(COC(=O)COc2ccc(C)c(C)c2)oc1C,0
1,-1.2,-3,-18%,7%,Oc1ccc2ccccc2c1CN1CC2CCC(CC2)C1,0
-3,-1.3,-4,-8%,-19%,COc1ccc(S(=O)(=O)Nc2ccccc2C(=O)NCc2ccco2)cc1Br,-1
-1,-1.9,0,-4%,-44%[inhibitor],O=c1[nH]c(NC2CCCCC2)c([N+](=O)[O-])c(=O)[nH]1,23
-4,-1.7,5,-9%,-13%[15.4 µM],COc1ccccc1/C=C/C(=O)NC(=S)N1CCOCC1,1
-1,0.4,12,13%,-18%,CC(C)[C@H](NC(=O)N1CC(=O)Nc2ccccc21)C(=O)N[C@@H](C(=O)O)c1ccccc1,3
-20,-2.0,4,-4%,10%,O=C(NC1CC2CCC1C2)c1ccc(CN2CCOCC2)cc1 (centres undefined),-1

# Whole records from above. Order of screens: D2 potentiator | D2 agonist | CtBP-E1A blk | gsp antagonist | gsp agonist | Six1-Eya2 inh
# Cc1cccc(C2=N/C(=C\c3cccnc3)C(=O)O2)c1 is listed as 2 | -1.8 | 1 | 4% | -22% | 5
# Cc1nnsc1SCCNC(=O)c1ccc(F)cc1 is listed as 0 | -3.6 | 11 | 1% | 3% | 4
# O=C(COC(=O)C1CC1)Nc1cccc(Cl)c1 is listed as -3 | -2.5 | 7 | x | 32% | -5
# Cc1ccc(S(=O)(=O)C(C)C(=O)c2ccc3c(c2)OCCO3)cc1 (centres undefined) is listed as -11 | -0.5 | 2 | -6% | 3% | 0
